AID504770: growth inhibitors of E. coli YBA685 in a screen for V. cholerae RctB (chromosome II replication) inhibitors; E. coli YBA685 rctB-dependent plasmid, OD600 growth, 3 h; stronger effect = lower value; 130,000 tested, 0.27% active; z-score (concentration not given with the values);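 active means z-score under -2 on both plates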;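 further: wells of about 30 µL received 100 nL stock; score is relative to mean and SD of the test wells; the first replicate is given; strong numbers were not always called active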
Ba CapD inh: CapD enzyme inhibition; z-score (concentration not given with the values); purified CapD enzyme, fluorescence intensity read-out; stronger effect = lower value; some hits fall short of the stated cut; 140,000 tested, 0.23% active;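 active means z-score under -4 in either of two replicates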;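 further: stock transfer was 100 nL into about 40 µL; score is relative to mean and spread of the plate; one replicate is shown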
Numbers without * were called inactive; nt = no result given.

SMILES | AID504770 | Ba CapD inh
CCOC(=O)c1ccc(N=C2SC(C(=O)Nc3ccc(F)cc3)CC(=O)N2C)cc1 (stereo not given) | nt | -0.59
COC(=O)c1c(NC(=O)C2CCCC2)sc2c1CCCC2 | 2.5 | 28
O=C(CS(=O)(=O)c1ccccc1)Nc1ccccc1O | 0.45 | 0.045
O=C(CCS(=O)(=O)c1ccccc1)Nc1cccc(-c2nc3ccccc3o2)c1 | 0.35 | nt
COC(=O)N=Nc1c(O)[nH]c2ccc(Br)cc12 | -0.5 | -0.73
CS(=O)(=O)c1ccc2nc(NC(=O)Oc3ccccc3)sc2c1 | 1.3 | 0.065
CCC(=O)N1c2cc(Cl)ccc2-n2c(nn(C(=O)CC)c2=O)N1C(=O)CC | -0.6 | 0.29
Cn1c(SCc2ccc(OC(F)(F)F)cc2)nnc1-c1ccc2ncccc2c1 | nt | 1.2
CCS(=O)(=O)Nc1cccc(-c2cn3ccccc3n2)c1 | -0.65 | 95
COCCn1c(N)cc(=O)[nH]c1=S | -1.3 | nt
Cc1ccccc1-c1nc(CN2CCC(C(=O)NCc3ccccc3)CC2)c(C)o1 | 1.4 | -0.16
C/C(=N\Nc1ccccc1)c1cc2cc(Br)ccc2oc1=O | nt | -0.68
Cc1nc(N(C)C)c2sc(=S)n(C)c2n1 | 0.65 | -1.3
O=C(O)C1CCN(C(=O)N2CCOc3ccccc32)CC1 | -0.6 | 0.15
Cc1ccc(-c2noc(CCCC(=O)N3CCCCC3)n2)cc1 | 0.25 | -1
Cn1cc(S(=O)(=O)N2CCCC2)cc1C(=O)N1CCN(c2ccccc2)CC1 | -0.5 | 0.12
COc1cc(-c2nc3ccccc3c(=O)n2NCc2cccc(Br)c2)cc(OC)c1OC | nt | 0.64
CCS(=O)(=O)N1CCC(NC(=O)C(Cc2ccc(OC)c(OC)c2)NC(C)=O)CC1 (stereo not given) | 1.6 | nt
COc1ccc(-c2[nH]c(SC)nc(=S)c2C#N)cc1 | -0.6 | -1.2
CC(C)(c1ccccc1)c1ccc(OCCN2CCOCC2)cc1 | 2 | -2
Cc1[nH]c(-c2ccccn2)nc(=S)c1Cl | nt | -1.2
Cc1ccc(Cl)cc1N1CCN(C(=O)CCNS(=O)(=O)c2ccc3c(c2)CCC(=O)N3)CC1 | -0.1 | 18
CCOc1ccccc1NC(=O)C1COc2ccccc2O1 (stereo not given) | nt | -0.17
COC(=O)c1ccc(OCC(O)Cn2c(C)[n+](C)c3ccccc32)cc1 (stereo not given) | 1.6 | -0.98
CNC(=O)CSc1nc2ccccc2c(=O)n1C | -0.8 | 4.9
Cc1c(C(=O)OCC(=O)c2ccc(Cl)s2)sc2nc3n(c(=O)c12)CCC3 | -0.9 | nt
O=C(O)CSc1cc(C(F)(F)F)nc2ccccc12 | -1.5 | -0.7
CNC(=O)Cn1cc2c(n1)CCC(C)C2 (stereo not given) | -0.5 | 0.35
N#CCSc1nc(-c2cccs2)cc(-c2cccs2)c1C#N | 0.75 | 23
CC(=O)N1CCN(C(=O)c2ccc(NCc3ccccc3Cl)c(S(=O)(=O)Nc3cccc(C(F)(F)F)c3)c2)CC1 | nt | 3
CN(C)S(=O)(=O)c1ccc(C(=O)OCC2COC(C)(C)O2)cc1 (stereo not given) | 2.2 | nt
O=C(/C=C/c1ccccc1)OCC(=O)c1ccc[nH]1 | 1.4 | nt
COc1ccc(OCC(=O)c2ccc(OC3OC(COC(C)=O)C(OC(C)=O)C(OC(C)=O)C3OC(C)=O)cc2O)cc1 (stereo not given) | nt | 0.24
N#CCCn1cc(/C=N/NC(N)=S)c(-c2ccccc2)n1 | 0.25 | nt
O=C(NC1CCCCC1)C1OC(c2ccccc2)OC1C(=O)NC1CCCCC1 (stereo not given) | -2 | nt
CCn1c2ccccc2c2cc(CN3CCC(NC(=O)OCc4ccccc4[N+](=O)[O-])C3)ccc21 (stereo not given) | nt | 1.7
Cc1ccc(CNC(=O)Cn2c(SCc3ccccc3F)nc3cccnc32)cc1 | -0.45 | 110
COc1ccccc1C(=O)OCC(=O)Nc1ccccc1 | 0.15 | 0.66
CC(C)Oc1ccc(/C=C/C(=O)Nc2noc3ccccc23)cc1 | -0.6 | 4.4
O=C(Nc1cc(Cl)ccc1Cl)c1cc2n(n1)C(C(F)(F)F)CC(c1ccc3c(c1)OCO3)N2 (stereo not given) | nt | -0.02
CCN(CC)C(=O)CSc1nnc2sc3ccccc3n12 | -0.35 | nt
CS(=O)(=O)c1ccc(N)cc1 | -0.8 | 0.065
CCc1ccc(NS(=O)(=O)c2ccc3[nH]cc(C(=O)NCc4ccco4)c(=O)c3c2)cc1 | 1.4 | 0.49
CC(C)C(=O)N=c1scc(-c2ccccc2)n1-c1ccccc1Cl | 0.2 | 0.04
O=C(NCc1cccs1)c1cnc2ccccn2c1=O | -0.35 | 0.46
O=c1[nH]c(=O)c2[nH]cnc2[nH]1 | 0.1 | nt
NC(=S)n1[nH]c(-c2ccccc2)c(N=Nc2nccs2)c1=O | 0.1 | -1.6
Cc1nc(-c2cccnc2)[nH]c(=O)c1CC1CC1 | -3* | -0.42
CC/C(Cc1ccccc1)=N/NS(C)(=O)=O | -0.6 | 0.42
CCOC(=O)C1=C(C)NC2=C(C(=O)C(C(=O)OCC)C(c3ccc(OC)cc3)C2)C1c1ccc(SC)cc1 (stereo not given) | nt | 4
(list continues)
SMILES | AID504770 | Ba CapD inh
O=C(OCC1CC(c2ccccc2)=NO1)c1ccc(Cl)cc1 (stereo not given) | 0 | 0.39
CCOC(=O)N1CCC(N2C(=O)c3ccc(C(=O)O)cc3C2=O)CC1 | 0.15 | -0.36
Cn1c(CNC(=O)c2ccco2)nnc1SCC(=O)N1N=C(c2ccc(Br)cc2)CC1c1ccc(F)cc1 (stereo not given) | nt | 0.36
Cc1ccc(-c2csc(-c3ccccc3)n2)cc1 | nt | 1
CCCc1cc(N2CCN(c3ccccc3)CC2)n2c(nc3ccccc32)c1C#N | -0.1 | 1.7
O=C(CCn1c(=O)c2cccn2c2ccc(F)cc21)NCc1ccccc1 | -0.1 | 3.8
O=C(O)c1n[nH]c2c1CCCCC2 | -0.5 | nt
O=c1c2cnc(NCc3cccnc3)nc2ccn1Cc1cccnc1 | -0.4 | 4.8
COc1cccc2cc(C(=O)NCCc3c(C)[nH]c4ccc(OC(F)(F)F)cc34)c(=O)oc12 | 0.25 | -0.055
O=C1CCCN1CC1CCCNC1 (stereo not given) | -1 | -0.22
C/C(CCc1ccc2c(c1)OCO2)=N\N1C(=N)SC(C(=O)Nc2ccc(C(=O)O)cc2)CC1=O (stereo not given) | 1.2 | -0.67
CN(C)c1cc(C(=O)NCC2CCCO2)nc(N(C)C)n1 (stereo not given) | nt | 1.7
CCN/C(C)=C/c1nsc(Nc2ccc(Cl)c(Cl)c2)n1 | nt | 45
Cn1c(SC(C#N)Cc2ccccc2)nnc1-c1ccc(C(C)(C)C)cc1 (stereo not given) | -0.8 | nt
CCOC(=O)N1CC=C2C(C#N)=C(N)C(C#N)(C#N)C(c3ccc(CC)cc3)C2C1 (stereo not given) | 0.4 | nt
CCOc1ccc(NC(=O)CN2C(=O)/C(=C/c3cc(OC)c(OC)c(OC)c3)SC2=S)cc1 | nt | 0.12
CN1C(=O)CC(c2ccccc2)Sc2ccccc21 (stereo not given) | -0.2 | 0.25
C=CCN1C(=O)C(C(=O)NC(C)(C)C)C2CC1(C)Oc1ccccc12 (stereo not given) | 0.15 | -0.33
CSc1cccc(NC2=NC3CS(=O)(=O)CC3S2)c1 (stereo not given) | -0.35 | -0.26
COc1ccc(C2C3=C(CCCC3=O)N(c3ccc([N+](=O)[O-])cc3)C(=N)/C2=C(/O)c2ccc(C)cc2)cc1 (stereo not given) | nt | 0.34

A different layout for 15 compounds above:
smiles,AID504770,Ba CapD inh
Cn1c(CNC(=O)c2ccco2)nnc1SCC(=O)N1N=C(c2ccc(Br)cc2)CC1c1ccc(F)cc1 (stereo not given),nt,0.36
Cc1ccc(-c2csc(-c3ccccc3)n2)cc1,nt,1
CCCc1cc(N2CCN(c3ccccc3)CC2)n2c(nc3ccccc32)c1C#N,-0.1,1.7
O=C(CCn1c(=O)c2cccn2c2ccc(F)cc21)NCc1ccccc1,-0.1,3.8
O=C(O)c1n[nH]c2c1CCCCC2,-0.5,nt
O=c1c2cnc(NCc3cccnc3)nc2ccn1Cc1cccnc1,-0.4,4.8
COc1cccc2cc(C(=O)NCCc3c(C)[nH]c4ccc(OC(F)(F)F)cc34)c(=O)oc12,0.25,-0.055
O=C1CCCN1CC1CCCNC1 (stereo not given),-1,-0.22
C/C(CCc1ccc2c(c1)OCO2)=N\N1C(=N)SC(C(=O)Nc2ccc(C(=O)O)cc2)CC1=O (stereo not given),1.2,-0.67
CN(C)c1cc(C(=O)NCC2CCCO2)nc(N(C)C)n1 (stereo not given),nt,1.7
CCN/C(C)=C/c1nsc(Nc2ccc(Cl)c(Cl)c2)n1,nt,45
Cn1c(SC(C#N)Cc2ccccc2)nnc1-c1ccc(C(C)(C)C)cc1 (stereo not given),-0.8,nt
CCOC(=O)N1CC=C2C(C#N)=C(N)C(C#N)(C#N)C(c3ccc(CC)cc3)C2C1 (stereo not given),0.4,nt
CCOc1ccc(NC(=O)CN2C(=O)/C(=C/c3cc(OC)c(OC)c(OC)c3)SC2=S)cc1,nt,0.12
CN1C(=O)CC(c2ccccc2)Sc2ccccc21 (stereo not given),-0.2,0.25

(next part)
SMILES | AID504770 | Ba CapD inh
CCOC(CNC(=O)c1sc2ncnc(N3CCN(c4ccc(OC)cc4)CC3)c2c1C)OCC | nt | -0.48
O=C(COC(=O)C1CC1)NCc1ccccc1 | 0.05 | nt
CCOC(=O)C1=C(C)OC(N)=C(C#N)C1c1c(Cl)cccc1Cl (stereo not given) | nt | 0.66
Cc1ccc(N=CC23c4ccccc4C(c4ccccc42)C2C(=O)N(c4ccccc4)C(=O)C23)cc1 (stereo not given) | nt | -0.12
Cc1ccc(/C=N/N2C(C)CCCC2C)cc1 (stereo not given) | -0.1 | nt
Cn1c(Cc2cccs2)nnc1SCc1ccc(C(=O)Nc2ccccc2)cc1 | 2.5 | nt
CNC(=S)N(CCCn1ccnc1)Cc1c(F)cccc1Cl | -0.25 | nt
COc1ccc(N2C(=O)C3SC(N)=C(C#N)C(c4ccco4)C3C2=O)cc1 (stereo not given) | -0.9 | nt
CN(C(=S)SCc1ccccc1)c1ccccc1 | 0.5 | 0.4
COc1ccccc1N1CCN(S(=O)(=O)c2c(C)ccc3nsnc23)CC1 | -0.25 | 0.01
COc1ccc(-n2ncc3c(N4CCN(c5cccc(C)c5C)CC4)ncnc32)cc1 | nt | -0.44
COC(=O)c1c(N)oc2c(-c3cccc(C(F)(F)F)c3)c3c(C(=O)OC)c(N)oc3cc12 | 1.7 | 41
O=c1sc2c(s1)SCC(=NNC(=S)Nc1ccccc1)CS2 | nt | -0.29
CS(=O)c1noc(-c2ccc(Cl)cc2)c1C#N (stereo not given) | nt | -0.13
O=C(O)CN1C(=O)/C(=C\c2cccc(OCc3ccc(Cl)cc3Cl)c2)SC1=S | nt | -0.27
O=C1CCC(C(=O)N2CCN(c3ccc(F)cc3)CC2)=NN1 | -0.55 | nt
CCC(C)N1Cc2ccccc2N(CC)C1c1ccccc1F (stereo not given) | 2.4 | -4.3*
O=C(Cn1cnc([N+](=O)[O-])n1)Nc1ccc(Cl)cc1Cl | nt | 0.075
N#Cc1c(Cl)cccc1Oc1ccc(S(=O)(=O)N2CCC(O)C2)cc1 (stereo not given) | nt | -0.015
O=C1Nc2ccccc2C1(C(F)(F)F)C(F)(F)F | 0.2 | nt
CC1=C(CC(=O)NNC(=O)c2sc(-c3cnccc3C(F)(F)F)nc2C)c2cc(F)ccc2/C1=C\c1ccc(S(C)=O)cc1 (stereo not given) | nt | -1
COc1ccc(NC(=O)c2ccc3c(=O)n(Cc4ccco4)c(=S)[nH]c3c2)cc1OC | -0.05 | 6.5
O=C(/C=C/c1cccs1)Nc1ccc(N2CCOCC2)c(C(=O)O)c1 | -0.25 | -0.97
CCN(c1ccccc1)S(=O)(=O)c1ccc(C(=O)NCCCN2CCCC2=O)cc1 | -0.2 | nt
CCOC(=O)C1CCCN(C(=O)Cc2ccc(OC)c(OC)c2)C1 (stereo not given) | 0.2 | 0.29
CCN(CC)c1ccc(/C=C2\C(=O)NC(=O)N(Cc3ccc(OC)cc3)C2=O)cc1 | nt | 0.17
NC(=O)COc1coc(CN2CCN(c3ccccc3)CC2)cc1=O | 1 | nt
CN1CC(CNC(=O)OCc2ccccc2)CC2c3cccc4c3c(cn4C)CC21 (stereo not given) | 0.25 | 0.035
O=C(NC1CCN(Cc2ccccc2)CC1)c1ccco1 | nt | 0.33
O=S(=O)(CCN1CCOCC1)c1ccccc1 | 0.1 | -0.55
CC(Oc1ccc(C(C)(C)C)cc1)C(=O)O (stereo not given) | -0.75 | nt
Cc1ccc(S(=O)(=O)NCCc2nnc3ccc(SCC(N)=O)nn23)cc1 | -0.7 | 1.1
N#Cc1cc2c([nH]c1=S)CCCC2 | -0.1 | 0.05
CCOC(=O)/C(C#N)=C/Nc1cc(C)ccn1 | nt | 0.73
CN(C(=O)Cn1ncc2c1-c1ccccc1OC2)c1ccccc1F | -0.05 | 0.28
C=CCNc1nc(NCc2ccco2)nc(OCC)n1 | -0.25 | nt
COc1ccc(/C=C2\C=C(c3ccccc3)N(c3ccc(Br)cc3C)C2=O)cc1Br | nt | -0.75
Cc1c(C(=O)NCc2cccnc2)sc2ncnc(N3CCOCC3)c12 | nt | 0.79
Cc1ccc(C(=O)Oc2ccc3c(c2OC(=O)c2ccc(C)cc2)-c2cccc4c2C(C3)N(C)CC4)cc1 (stereo not given) | nt | -0.07
CCOc1ccc(CCOC(=O)NNC(=O)c2ccccc2-n2cccc2)cc1 | nt | 0.065
CC(=O)Nc1cc2cc(NC(=O)c3c(-c4c(Cl)cccc4Cl)noc3C)ccc2oc1=O | nt | 9.1
CCCc1nc2c3ccccc3[nH]c(=O)n2n1 | -0.3 | 5.2
CCOc1ccc(N2C(=O)C(C)SC23C(=O)N(CN2CCCCC2)c2ccccc23)cc1 (stereo not given) | nt | 0.24

High-throughput results from PubChem.
